Ecoli growth = inhibitors of Escherichia coli growth | OD600, 23 h; hits give low values | OD600 absorbance (concentration not given with the values) | 330,000 compounds, 0.21% hits | AID 1053175;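 active means OD600 absorbance below the run mean of sample wells minus 3.6 SD, in any replicate, cut at about 0.56 in these data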;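 further: stock transfer was 300 nL into about 60 µL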
Vif A3G = HIV-1 Vif–A3G interaction blockers – biochemical, TR-FRET, GST-Vif 1-94, biotin-A3G peptide, dose response retest, primary screen (AID 1117319). TR-FRET GST-Vif / biotin-A3G peptide binding; higher % means a stronger effect; test concentration not given here; strong numbers were not always called active. one-dose inhibition, %; IC50 in µM for titrated hits. 260,000 compounds, 0.57% hits;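 active means above the screen mean plus three standard deviations and confirmed in dose response; inconclusive means results disagree or hit not tested in dose response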;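 further: Vif residues 1-94 fused to GST binding biotinylated APOBEC3G peptide 110-148; 0% = full assay without inhibitor and 100% = GST in place of GST-Vif; retest series ran down from 100 µM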
HNF4A DNA FP = change in binding of human HNF4 alpha to DNA; 360,000 compounds, 0.3% hits; activity change, % at 10 µM; HNF4a-FITC DNA binding, fluorescence polarization, 1 h; AID 1224865; P41235; in the data active means activity change above about 30%, passing the limit was not always enough;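 further: controls were the assay level and a saturating level of protein; the project sought stronger binding though the title names inhibitors; some compounds called inactive have numbers as strong as hits; positive values seem to mean higher polarization but the record does not say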
A1 inh = inhibitors of the anti-apoptotic protein A1, read as caspase activation. MEF A1-2A-BIM cells, Caspase-Glo 3/7 luminescence, 3 h; percent of clofoctol response, vehicle zero. caspase activation, % (no concentration beside the values). 330,000 compounds, 0.066% hits;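 active means over half of replicate activation scores above 10%, or exactly half above 10 with the replicate mean above 10; inconclusive means replicate mean below 10 yet half the replicates above 10; inactive means over half of replicates below 10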;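 further: wells of about 30 µL received 50 nL stock; many hits fall short of the cut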
Beta2AR agonist = activates human beta-2 adrenergic receptor causing internalization | P07550 | Am2.2-beta2AR cells, FAP receptor internalization, flow cytometry; reference of the scale not given here | response, % (concentration not given with the values) | AID 504454 | 340,000 compounds, 0.43% hits;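 active means response above a set limit, near 3 SD of response in nonfluorescent compounds, cut at about 42% in these data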;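 further: stock transfer was 100 nL into about 11 µL; a reference agonist was the positive control; negative values mostly stem from fluorescent compounds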
LANA-H2B inh = blocks KSHV LANA binding to histone H2A/H2B; Q9QR71; cell-free LANA-H2A/H2B peptide, fluorescence polarization; inhibition, % (no concentration beside the values); 320,000 compounds, 0.6% hits; AID 2629; in the data active means inhibition mostly above about 10%, no sharp cut-off; inactive means mostly below about 6.7%;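 further: stock transfer was 7.5 nL into about 10 µL; 0% = median of vehicle wells and 100% = median of positive control wells; one replicate is shown; the record names a cut of 25% in any replicate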
Target sequence (Q9QR71 whole entry, looked up): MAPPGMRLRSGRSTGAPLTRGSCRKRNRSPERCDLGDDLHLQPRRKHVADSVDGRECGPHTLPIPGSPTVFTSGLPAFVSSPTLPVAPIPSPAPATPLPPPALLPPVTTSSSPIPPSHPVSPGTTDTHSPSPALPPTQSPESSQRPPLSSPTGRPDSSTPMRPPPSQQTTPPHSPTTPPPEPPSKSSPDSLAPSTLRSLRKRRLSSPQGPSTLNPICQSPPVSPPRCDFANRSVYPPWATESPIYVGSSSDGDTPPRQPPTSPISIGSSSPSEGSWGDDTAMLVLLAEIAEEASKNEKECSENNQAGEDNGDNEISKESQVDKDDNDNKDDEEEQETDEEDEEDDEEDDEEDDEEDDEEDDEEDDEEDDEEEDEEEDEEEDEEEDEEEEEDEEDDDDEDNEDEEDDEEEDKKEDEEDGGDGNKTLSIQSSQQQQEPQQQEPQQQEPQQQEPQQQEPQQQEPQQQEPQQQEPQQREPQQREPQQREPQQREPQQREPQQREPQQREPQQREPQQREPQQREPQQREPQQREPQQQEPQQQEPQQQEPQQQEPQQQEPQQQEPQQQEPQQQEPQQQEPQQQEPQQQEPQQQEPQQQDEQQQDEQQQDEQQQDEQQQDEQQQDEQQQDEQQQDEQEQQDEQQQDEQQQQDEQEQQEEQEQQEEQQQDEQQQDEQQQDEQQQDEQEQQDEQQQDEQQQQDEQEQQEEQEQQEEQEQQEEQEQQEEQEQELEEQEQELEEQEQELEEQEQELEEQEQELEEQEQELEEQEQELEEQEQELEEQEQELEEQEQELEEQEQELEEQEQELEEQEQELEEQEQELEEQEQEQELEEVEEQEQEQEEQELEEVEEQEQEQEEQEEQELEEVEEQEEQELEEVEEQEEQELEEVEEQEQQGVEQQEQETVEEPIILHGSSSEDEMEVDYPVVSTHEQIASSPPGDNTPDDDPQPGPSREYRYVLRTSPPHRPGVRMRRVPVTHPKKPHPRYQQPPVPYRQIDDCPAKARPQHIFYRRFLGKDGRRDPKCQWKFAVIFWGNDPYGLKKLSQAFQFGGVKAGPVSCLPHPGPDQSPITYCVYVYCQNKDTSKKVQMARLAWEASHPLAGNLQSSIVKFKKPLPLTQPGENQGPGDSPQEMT
UCH37 inh = blocks the human deubiquitinase UCH37; purified proteasome/UCH37, Ub-AMC cleavage fluorescence; inhibition, % (concentration not given with the values); 330,000 compounds, 0.33% hits; AID 588478;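 active means mean of two replicates above 20%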;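 further: 0% = compound-free wells with enzyme and 100% = wells lacking proteasome; stock transfer was 100 nL into about 20 µL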
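Material: human UCH37 enzyme supplied as purified proteasome complex. Measure: % inhibition of Ub-AMC cleavage fluorescence. Medium: pH 7.4 Tris-HCl (50 mM) with ovalbumin, ATP-MgCl2, DTT. Times: 30 min preincubation with enzyme, 25 min cleavage at room temperature. Detection: AMC fluorescence intensity at 355/460 nm.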
Active calls of the source: *; ? = inconclusive; . = no result given; & = joins results of further samples. Compounds were not picked by outcome; any-hit rate near 2.1%.

Values run as follows: Ecoli growth	Vif A3G	HNF4A DNA FP	A1 inh	Beta2AR agonist	LANA-H2B inh	UCH37 inh
1. CCOc1ccc(C(=O)OCC(=O)Nc2cc(S(=O)(=O)N3CCOCC3)ccc2N2CCOCC2)cc1
 : 0.713	.	6.0	.	2.6	.	3.4
2. COc1ccccc1N1CCN(C(=O)CCC(=O)Nc2nnc(CC(C)C)s2)CC1
 : 0.652	.	-3.7	-0.4	1.0	-4.4	-2.2
3. CCOC(=O)c1ccc(COC(=O)c2ccc3c(c2)-c2ccccc2C3=O)cc1
 : 0.682	15.4%	-3.0	0.3	-3.4	-4.4	1.2
4. COc1cccc(OC)c1CN1CCCC(C(=O)c2ccccc2SC)C1 (stereo not drawn)
 : 0.647	4.3%	9.7	0.0	2.5	1.6	4.1
5. CN(C(N)=S)c1ccccc1
 : 0.696	2.9%	2.3	?	-3.7	-6.9	1.1
6. CC(=O)NCC(=O)NC(C(=O)Nc1ccc2c(c1)OCCO2)c1ccc(C)cc1 (stereo not drawn)
 : 0.729	12.2%	-0.7	1.3	-8.5	-2.9	3.1
7. O=C(Cc1ccc(Cl)cc1Cl)OCC(=O)c1ccc[nH]1
 : 0.694	29.1%	-0.9	-0.8	2.1	-3.7	0.0
8. O=C(CSc1nc(N2CCOCC2)nc(N2CCOCC2)n1)Nc1ccc(Cl)cc1Cl
 : 0.742	.	-4.4	0.8	-8.4	1.8	5.6
9. Cc1ccc(NC(=O)CN2CCN(S(=O)(=O)c3ccc(F)cc3)CC2)cc1C
 : 0.621	-1.8%	-0.5	-1.2	4.4	-2.1	1.0
10. O=C(NCc1nnc(SCC(=O)N2CCN(c3ccccc3)CC2)o1)c1ccc(F)cc1
 : 0.685	0.0%	-1.2	0.3	-0.2	-12.1	4.1
11. CCCn1c(N)c(C(=O)CSc2nnc(-c3c[nH]c4ccccc34)n2C2CC2)c(=O)[nH]c1=O
 : 0.73	3.9%	2.3	-0.1	3.5	-1.2	1.7
12. CCOc1cc(/C=N/NC(=O)Cn2nc([N+](=O)[O-])cc2C)cc(Br)c1OCc1ccccc1F
 : .	-2.4%&1.8%	-2.3	.	6.1	0.3	.
13. CCOc1ccc(NC(=O)C(C)Oc2ccc(C#N)cc2)cc1S(=O)(=O)N1CCCC1 (stereo not drawn)
 : 0.673	-13.3%	2.1	-0.3	13.2	-1.9	2.5
14. CCCCN(C)C(=O)c1cc2cc3ccc(OC)cc3nc2s1
 : 0.64	-8.5%	1.8	-7.4	1.1	7.9	-77.2
15. CNC(=S)NCc1ccc(Cl)cc1
 : 0.677	.	-1.1	-0.1	-1.9	2.3	3.1

Values run as follows: Ecoli growth	Vif A3G	HNF4A DNA FP	A1 inh	Beta2AR agonist	LANA-H2B inh	UCH37 inh
16. O=[N+]([O-])c1ccccc1S(=O)(=O)N1CCN(Cc2cc3c(cc2O)OCO3)CC1
 : 0.719	.	2.3	-0.6	-3.1	-2.3	2.7
17. Clc1ccccc1/C=N/c1cc(-c2ccccc2)nn1-c1ccccc1
 : .	-2.2%	-5.1	-0.1	-6.7	1.9	.
18. COc1ccc(-c2oc3ncnc(NCCCN(C)C)c3c2-c2ccc(OC)cc2)cc1
 : 0.672	-7.6%	5.6	1.8	21.9	-4.6	-190.1
19. CCCCN(CC)CCNC(=O)C1CCN(S(=O)(=O)c2cccc3nsnc23)CC1
 : 0.694	.	1.4	1.6	-4.2	1.8	1.8
20. Fc1ccc(C(c2nnnn2C2CCCC2)N2CCN(Cc3ccccc3)CC2)cc1 (stereo not drawn)
 : 0.704	8.9%	-3.1	.	10.4	.	.
21. C[C@]12c3[nH]c4ccccc4c3CCN1C(=O)C(CC(=O)NCCC1=CCCCC1)C[C@@H]2C(=O)N1CCCCC1 (stereo partly drawn)
 : 0.754	-7.5%	-1.5	-0.4	-2.0	-107.3	1.2
22. O=C(O)c1ccc(-n2nc(-c3ccccc3)c3ccccc3c2=O)cc1
 : 0.695	.	1.4	-0.9	-3.8	-1.6	-0.1
23. Cc1ccc(CNC(=O)CCNC(=O)Cn2ccc3ccccc3c2=O)o1
 : 0.709	-3.0%	-4.1	0.7	1.4	-10.4	-1.4
24. Nc1nnc(SCC(=O)N2CCCCC2)s1
 : 0.72	-5.5%	0.2	1.1	1.9	-2.0	0.6
25. Cc1nn(-c2ncc(C(F)(F)F)cc2Cl)c(=O)n1-c1ccccc1F
 : 0.692	0.1%	1.9	0.5	-10.1	-2.7	3.7
26. Cc1nc2cc(NC(=O)Nc3ccc(Br)cc3)ccc2o1
 : 0.626	-4.2%	2.4	0.3	1.3	1.4	-1.8
27. Cn1c(=O)n(C)c2cc(S(=O)(=O)NCc3ccccc3)ccc21
 : 0.729	?	-3.1	0.1	10.8	2.7	1.1
28. CCOC(=O)c1sc(NC(=O)c2cccc(S(=O)(=O)N3CCN(C)CC3)c2)cc1C
 : 0.714	7.9%	2.3	-0.5	-17.1	0.7	0.4
29. O=C(NNC(=O)c1cccnc1)NC1CCCCC1
 : 0.675	.	2.0	0.2	-2.9	1.4	-0.3
30. CCN1CCc2c(OCC(=O)N3N=C(c4cccs4)CC3c3ccc(F)cc3)cccc2C1=O (stereo not drawn)
 : 0.685	.	0.2	-0.6	-8.1	1.4	-37.7

Values run as follows: Ecoli growth	Vif A3G	HNF4A DNA FP	A1 inh	Beta2AR agonist	LANA-H2B inh	UCH37 inh
31. CCOc1ccc(C(=O)NCc2ccco2)cc1
 : 0.637	19.4%	-3.5	-0.2	0.6	3.9	1.2
32. NC(=O)C1(Nc2ccccc2Cl)CCCC1
 : 0.65	-0.7%	-0.7	.	0.1	.	1.5
33. CN(C)S(=O)(=O)c1cccc(COC(=O)c2ccc3c(c2)OCO3)c1
 : 0.689	?	-0.8	-0.8	-0.3	-1.8	4.2
34. O=C(/C=C/Sc1ccccc1)c1ccccc1
 : 0.7	25.2%	0.6	-1.7	38.1	-18.9	4.7
35. Cc1ccc(C(c2nnnn2C2CCCCC2)N2CCN3CCCC3C2)cc1 (stereo not drawn)
 : 0.721	4.3%	-3.6	-0.1	12.6	2.0	2.6
36. COC(=O)c1c(C(=O)OC)c(-c2ccc(C)cc2)n2c1CCC2
 : 0.705	0.6%	5.7	1.4	-1.3	4.2	3.5
37. Cc1ccccc1N(CC(=O)N1CCc2ccccc2C1)S(C)(=O)=O
 : 0.697	-2.7%	0.1	1.4	-2.1	-1.3	4.8
38. COc1ccc([C@H]2CC(=O)C=C(c3c(OC)cccc3OC)C2)cc1
 : .	.	1.7	-0.3	-6.1	-0.2	1.8
39. Cc1cccc(C(=O)O)c1[N+](=O)[O-]
 : 0.669	.	0.3	-0.2	-1.3	-9.5	0.4
40. O=C(CN1CCN(c2ccccn2)CC1)Nc1ccc(OC(F)(F)F)cc1
 : 0.681	0.9%	1.9	0.3	0.5	-0.6	1.7
41. Cc1ccc(S(=O)(=O)NCC(c2cccnc2)N2CCN(Cc3ccccc3)CC2)cc1 (stereo not drawn)
 : 0.698	1.1%	4.2	0.3	-7.8	0.6	5.0
42. Cc1ccc(C(c2nnnn2C(C)(C)C)N2CCN(C3CCCC3)CC2)cc1 (stereo not drawn)
 : 0.776	11.2%	-3.3	0.4	2.9	-3.7	6.2
43. COc1ccccc1C(=O)Nc1cccc2c1CCCC2
 : 0.625	.	-1.6	0.0	-4.5	1.5	-6.8
44. O=C1C=C(/C=C/C2C=CC=CC2)C[C@@H](c2ccc(Cl)cc2)C1 (stereo partly drawn)
 : .	.	2.1	-0.9	4.7	-0.9	1.1
45. COc1ccc(NC2CS(=O)(=O)CC2OC(=O)c2ccc(F)cc2)cc1 (stereo not drawn)
 : 0.686	3.8%	0.0	-0.2	-1.6	3.6	-0.4

Values run as follows: Ecoli growth	Vif A3G	HNF4A DNA FP	A1 inh	Beta2AR agonist	LANA-H2B inh	UCH37 inh
46. Nc1ccc(S(=O)(=O)NC2(C(F)(F)F)NC(=O)N(c3ccc(F)cc3)C2=O)cc1 (stereo not drawn)
 : 0.696	.	0.0	0.2	2.6	-1.5	5.6
47. C[N+]1(CC(=O)OCCCc2ccccc2)CCOCC1
 : 0.691	-3.4%	-0.4	-0.2	1.2	-1.7	-4.1
48. COc1ccc(NC(=O)COc2ccc(C)c(C)c2)cc1S(=O)(=O)N1CCCCC1
 : 0.675	-0.3%	1.5	-1.1	5.8	1.5	-1.3
49. O=C(O)c1ccc(NC(=O)C(c2ccccc2)c2ccccc2)cc1
 : 0.672	.	0.6	-0.6	-0.1	0.5	4.5
50. C[C@@H]1CN([C@H](C)CO)C(=O)c2cc(NC(=O)Nc3ccc(C(F)(F)F)cc3)ccc2O[C@H]1CN(C)S(=O)(=O)c1ccccc1
 : 0.8	.	0.4	-0.3	-0.7	3.9	-4.7
51. Cc1cccc(C)c1OCC(=O)N1CCc2ccccc2C1
 : 0.693	.	0.0	-0.1	-4.1	0.0	4.0
52. Cc1oc(-c2ccccc2)cc1C(=O)Nc1cccc(/C=C/C(=O)O)c1
 : 0.684	11.8%	3.9	.	0.2	.	-0.8
53. O=C(c1ccco1)N1CCN(C(=O)C23CC4CC(CC(C4)C2)C3)CC1
 : 0.713	0.9%	9.7	-1.2	-5.4	-0.3	1.1
54. CCC1CCCCN1CCCNC(=O)C1CCN(c2ncnc3c2nc2n3CCCCC2)CC1 (stereo not drawn)
 : 0.661	.	1.5	0.8	1.3	2.9	1.8
55. COC(=O)c1ccccc1NC(=O)CSc1nncn1-c1ccccn1
 : 0.681	7.0%	2.4	0.9	-10.8	8.5	-2.6
56. CC(C)NC(=O)/C(C#N)=C\c1ccc(N(C)C)o1
 : 0.686	.	188.4	1.5	-7.1	-25.0	37.0*
57. O=C1NN(c2cccc(Br)c2)C(=O)/C1=C\c1ccc(N2CCOCC2)cc1
 : 0.707	10.0%	-6.6	-0.5	4.5	5.2	5.9
58. O=C(NCCc1nnc2ccc(NCc3cccnc3)nn12)c1ccccc1F
 : 0.689	-10.7%	-1.5	1.9	-0.5	13.1	-5.8
59. CCCC(=O)NC(c1ccccc1)c1c(O)ccc2ccccc12 (stereo not drawn)
 : 0.662	-3.4%	-0.5	0.0	5.6	-3.7	-6.2
60. N#CCC(=O)Nc1ccc(C(=O)OCC(=O)c2ccc3c(c2)NC(=O)CO3)cc1
 : 0.621	.	8.2	0.0	-2.3	4.7	2.4

Values run as follows: Ecoli growth	Vif A3G	HNF4A DNA FP	A1 inh	Beta2AR agonist	LANA-H2B inh	UCH37 inh
61. COc1ccc(CCNS(=O)(=O)c2ccc3c(c2)CCCC3)cc1OC
 : 0.716	.	3.5	-0.3	17.6	-3.4	-2.2
62. COc1ccc(CNC(=O)CNS(=O)(=O)c2cccc(C#N)c2)cc1OC
 : 0.679	-1.2%	-1.1	1.0	-0.9	-2.0	2.2
63. CC(C)(C)n1nnnc1CN1CCN(C2CCCC2)CC1
 : 0.742	23.2%	-2.6	0.4	-0.8	0.8	0.1
64. O=C(C1CCN(S(=O)(=O)N2CCC3(CC2)OCCO3)CC1)N1CCCCC1
 : 0.66	9.7%	1.7	0.3	-3.7	-0.8	5.4
65. COc1ccc(NC(=O)COC(=O)CNC(=O)COc2ccccc2)cc1OC
 : 0.644	-0.4%	-5.1	.	1.0	.	2.4

Compound activity as filed in PubChem.
